Screens (PubChem)
PKD1 kinase inh – inhibitors of human PKD1 kinase, biochemical, fluorescence polarization | Serine/threonine-protein kinase D1 (Homo sapiens), Q15139 | PKD1 kinase fluorescence polarization assay | inhibition, %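 (about 10 µM by stock and volumes)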 | 0.056% of 200,000 active;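 active means inhibition of 50% or more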;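 further: controls were vehicle for no effect and a reference inhibitor for full effect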
GALR2 ag – GALR2 receptor agonists, primary screen, cell-based | AID 803, 2007 | activation, %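 (tested at 5 µM)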 | GALR2-expressing cells, agonist activation read-out | Galanin receptor type 2 (Homo sapiens), O43603 | 0.48% of 140,000 active;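 active means above mean plus 3 SD of all compounds, about 5% in these data, not always enough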;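 further: 0% = vehicle buffer wells and 100% = reference agonist at full effect; tested in CHO reporter cells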
Target sequence (O43603 whole entry, looked up): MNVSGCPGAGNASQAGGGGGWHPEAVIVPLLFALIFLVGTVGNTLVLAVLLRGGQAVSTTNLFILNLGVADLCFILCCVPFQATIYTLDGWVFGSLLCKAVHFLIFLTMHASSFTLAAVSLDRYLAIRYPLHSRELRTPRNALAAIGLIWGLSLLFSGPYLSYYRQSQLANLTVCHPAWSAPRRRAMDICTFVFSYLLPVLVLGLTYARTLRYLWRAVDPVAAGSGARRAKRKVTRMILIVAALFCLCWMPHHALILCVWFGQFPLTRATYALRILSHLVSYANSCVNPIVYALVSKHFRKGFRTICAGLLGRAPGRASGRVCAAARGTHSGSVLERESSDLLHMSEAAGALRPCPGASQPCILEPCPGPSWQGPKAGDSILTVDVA
RGS16-Gao HTS – modulators of RGS16 binding to Galphao, primary screen, biochemical, human proteins, multiplexed bead flow cytometry; Regulator of G-protein signaling 16 (Homo sapiens) + Guanine nucleotide-binding protein …; bead-based flow cytometry RGS16-Galphao binding, fluorescence; actives lie on both sides; binding response (% of control), % at 10 µM; 0.38% of 220,000 active; AID 1441, 2008;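 active means below 25% or above 175%, edge rows of some plates excepted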;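 further: Galphao activated by GDP with aluminum fluoride before binding; 100% = wells without compound and 0% = beads without RGS; some results beyond the cut were filed as inactive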
Target sequence (O15492 whole entry, looked up): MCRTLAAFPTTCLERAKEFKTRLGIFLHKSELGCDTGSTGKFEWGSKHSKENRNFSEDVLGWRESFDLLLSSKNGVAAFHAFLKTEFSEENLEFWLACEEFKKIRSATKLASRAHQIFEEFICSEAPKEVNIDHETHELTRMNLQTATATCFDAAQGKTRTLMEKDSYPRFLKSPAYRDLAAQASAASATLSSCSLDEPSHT
Target sequence (P09471 whole entry, looked up): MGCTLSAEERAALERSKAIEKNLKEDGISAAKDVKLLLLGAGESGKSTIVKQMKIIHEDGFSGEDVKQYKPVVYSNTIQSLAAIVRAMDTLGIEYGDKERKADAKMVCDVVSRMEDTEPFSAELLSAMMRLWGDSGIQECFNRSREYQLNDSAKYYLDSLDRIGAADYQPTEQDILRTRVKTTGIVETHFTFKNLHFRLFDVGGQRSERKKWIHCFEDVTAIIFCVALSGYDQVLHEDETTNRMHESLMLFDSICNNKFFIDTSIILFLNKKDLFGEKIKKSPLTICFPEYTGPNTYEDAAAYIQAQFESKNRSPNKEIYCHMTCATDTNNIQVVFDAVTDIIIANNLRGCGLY
HSV augment – enhancers of HSV replication in host cells, fold increase, host cell viability | HSV replication augmentation in cells | maximum fold increase | 0.005% of 220,000 active;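 active means peak rise of 1.5-fold or more in the series; tested in PC3 cells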;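 further: first round at 10 µM; read as green reporter fluorescence; hits show the peak of a series up to 25 µM; 1 = signal of infected wells without compound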
INS promoter inh – inhibitors of insulin promoter-driven GFP, primary screen, imaging, TRM-6 cells (human fetal islet line), eGFP reporter, cell count. 0.9% of 130,000 active. reporter expression induced with tamoxifen. inhibition, % at 2 µM;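 active means inhibition above the mean plus 3 SD, with well images judged a real hit on visual review, cut at about 60% in these data, passing the limit was not always enough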
INS promoter inh cell count – further read-out of INS promoter inh, marked with its call; normalized cell count, %; measured here: cell count, toxicity; reference of the scale not given here;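 cells exposed to compound for 48 h; stained nuclei by imaging scaled within each plate; lower means fewer cells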
HSV augment primary fold – second read-out of HSV augment, no call of its own (marks repeat the call); fold increase; compound at 10 µM; measured here: primary screen fold increase 10 uM; tested in PC3 cells;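 GFP signal in the first replicate; 1 = infected wells without compound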
* marks the source's active call; other numbers are inactive results; i = inactive; nt = not tested or not shown. This is a random part of the collection; 1.1% or so of the library scored in one or more.

No.	Molecule	PKD1 kinase inh	GALR2 ag	RGS16-Gao HTS	HSV augment	HSV augment primary fold	INS promoter inh	INS promoter inh cell count
1	Cc1ccc(C)c(S(=O)(=O)NCc2ccncc2)c1	-4	-4.1	96	i	0.87	-5	40
2	CC1(C)CC(=O)C2=C(C1)OC(N)=C(C#N)C2c1cc2c(cc1[N+](=O)[O-])OCO2 (stereo unspecified)	-5	-1.5	106	i	1.2	22	100
3	COc1ccc(C2=CC(c3ccc(OC)c(OC)c3)n3nnnc3N2)c(OC)c1 (stereo unspecified)	-4	-1.1	103	i	1	-7	101
4	O=C(Nc1ccc2c(c1)OCO2)C1CC(=O)N(CCc2ccccc2)C1 (stereo unspecified)	3	nt	101	i	1	25	106
5	COc1cc(C(=S)N2CCN(c3cccc(Cl)c3)CC2)ccc1O	-4	nt	87	i	0.81	nt	nt
6	CC(C)CCNC(=O)C(c1cccs1)N(CC1CCCO1)C(=O)Cn1nnc2ccccc21 (stereo unspecified)	-10	0.7	103	i	0.95	-11	107
7	CCC(C)c1cc(S(=O)(=O)N2CCOCC2)ccc1OC (stereo unspecified)	3	-1.4	95	i	0.65	38	127
8	Cc1nn(C)c(Oc2ccccc2)c1[N+](=O)[O-]	-18	-0.3	101	i	0.95	-7	55
9	Cc1ncoc1C(=O)Nc1cccc(Cl)c1C	-11	-2.4	102	i	1.1	-109	52
10	Cc1cc(O)c(C(=O)/C=C/c2cccc([N+](=O)[O-])c2)c(=O)o1	nt	nt	94	i	0.99	nt	nt
11	COc1cc2c(cc1OC)C(c1cccs1)CC(=O)N2 (stereo unspecified)	-5	-3.1	98	i	0.8	34	146
12	Cc1ccc(-c2nnn(CC(=O)N3CCC(C)CC3)n2)o1	-1	-3.5	99	i	0.96	-22	123
13	CCCc1cc(=O)[nH]c(SCC(=O)c2c(N)n(C)c(=O)n(C)c2=O)n1	-8	-3.2	101	i	0.98	nt	nt
14	Cc1nn(C)cc1C(C(=O)NC1CCCCC1)N(C(=O)c1cnccn1)c1ccc(Oc2ccccc2)cc1 (stereo unspecified)	-2	-1.9	102	i	1	0	134
15	C=CCNC(=O)c1cccc(C(F)(F)F)c1	-9	-1.6	103	i	1.1	30	102
16	Cc1cccn2c(=O)c(/C=N/O)c(N3CCCC3)nc12	0	-1.9	98	i	1.1	5	83
17	CN(C)CCCNCCCNC(=O)c1ccncc1	-6	0.0	103	i	0.66	-35	132
18	CCc1nc(C)cn1S(=O)(=O)c1cc(F)ccc1OC	-6	nt	105	i	1.1	nt	nt
19	Clc1ccc(Cn2nnc(-c3ccccc3)n2)cc1	-1	-1.0	106	i	0.86	-23	137
20	Nn1c(COc2cccc(Cl)c2)nc2ccccc2c1=O	8	1.3	95	i	1.1	-17	112
21	CCOc1ccc(NC(=O)c2ccccn2)cc1	-11	-2.8	102	i	0.91	-43	71
22	CC(=O)Nc1nonc1-n1nnc(C(=O)NCc2ccccc2)c1C	-5	-0.2	105	i	0.95	nt	nt
23	COc1ccc(-c2cc(C(F)(F)F)nc(SCC(=O)Nc3ccc4c(c3)OCO4)n2)cc1	1	0.3	74	i	0.75	42	87
24	Cc1ccc(CN2CCN(/N=C/c3ccc(C(=O)O)cc3)CC2)c(C)c1	0	nt	96	i	0.99	0	74
25	C/C(N)=C(/C#N)C(=O)COC(=O)C1CCN(C(=O)c2ccc(Cl)cc2)CC1	0	nt	118	i	0.94	-45	109
26	CCOC(=O)c1sc(N/N=C/c2cccc(C)c2)nc1C	-18	-1.5	103	i	1	-46	96
27	O=C(NCCCNCCCNC(=O)c1ccc(/C=N/O)nc1)c1ccc(/C=N/O)nc1	nt	nt	98	i	1	nt	nt
28	Cc1ccc(-n2ccnc2SCC(=O)N(CC(C)C)C2CCS(=O)(=O)C2)c(C)c1 (stereo unspecified)	-2	-0.8	100	i	1.1	-87	95
29	O=C(c1ccc(Br)cc1)c1sc(N2CCOCC2)nc1-c1ccccc1	-1	nt	113	i	1	-33	103
30	O=C(CNC(=O)c1ccc2c(c1)OCCO2)N/N=C/c1cccc(Br)c1	-4	nt	104	i	1.1	-24	156

Compounds above that contain an aryl methoxy group:
No.	Molecule	PKD1 kinase inh	GALR2 ag	RGS16-Gao HTS	HSV augment	HSV augment primary fold	INS promoter inh	INS promoter inh cell count
3	COc1ccc(C2=CC(c3ccc(OC)c(OC)c3)n3nnnc3N2)c(OC)c1 (stereo unspecified)	-4	-1.1	103	i	1	-7	101
5	COc1cc(C(=S)N2CCN(c3cccc(Cl)c3)CC2)ccc1O	-4	nt	87	i	0.81	nt	nt
7	CCC(C)c1cc(S(=O)(=O)N2CCOCC2)ccc1OC (stereo unspecified)	3	-1.4	95	i	0.65	38	127
11	COc1cc2c(cc1OC)C(c1cccs1)CC(=O)N2 (stereo unspecified)	-5	-3.1	98	i	0.8	34	146
18	CCc1nc(C)cn1S(=O)(=O)c1cc(F)ccc1OC	-6	nt	105	i	1.1	nt	nt
23	COc1ccc(-c2cc(C(F)(F)F)nc(SCC(=O)Nc3ccc4c(c3)OCO4)n2)cc1	1	0.3	74	i	0.75	42	87

Further compounds.
No.	Molecule	PKD1 kinase inh	GALR2 ag	RGS16-Gao HTS	HSV augment	HSV augment primary fold	INS promoter inh	INS promoter inh cell count
31	COc1ccc(OCCNS(=O)(=O)Cc2ccccc2)cc1	3	-0.2	101	i	1.1	nt	nt
32	CC(C)CCC(CCN1CCOCC1)c1ccc2c(c1)OCO2 (stereo unspecified)	-1	-0.6	101	i	0.91	nt	nt
33	Cc1ccc(C)c(C(=O)Nc2c(C(N)=O)oc3ccccc23)c1	-6	-2.3	99	i	0.88	nt	nt
34	O=C(c1c[nH]c2ccc(S(=O)(=O)N3CCC4(CC3)OCCO4)cc2c1=O)N1CCOCC1	1	0.7	99	i	1	0	70
35	Cc1ccc(Cn2cccc2/C=N/NC(=S)Nc2ccc(C)cc2)cc1	-1	nt	103	i	0.99	nt	nt
36	COc1ccc2cc(C(=O)Nc3ccc(S(N)(=O)=O)cc3)sc(=O)c2c1OC	-5	nt	99	i	0.91	nt	nt
37	Cc1nc(/C(N)=N/OC(=O)Cc2ccccc2)no1	5	nt	116	i	0.98	43	66
38	Cn1cnc([N+](=O)[O-])c1N=C(N)N	nt	nt	103	i	1.1	nt	nt
39	CC(C)CCNC1=CC(=O)CC(c2ccccc2)C1 (stereo unspecified)	-3	-2.3	114	i	0.81	34	131
40	CC(C)(C)c1ccc(OCc2ccc(C(=O)N/N=C3\CC4CC=CC34)cc2)cc1 (stereo unspecified)	1	-2.5	98	i	0.94	19	132
41	COC(=O)c1cn(CC(=O)NC2CCCCCC2)c2ccccc12	-10	-2.2	nt	i	1.1	-431	60
42	Nc1nc(-c2ccccc2)c(C(=O)Nc2ccccc2)s1	-4	nt	109	i	0.86	33	126
43	Cc1ccc(-n2[nH]c(C)c(C=Nc3ccc4[nH]c(=O)[nH]c4c3)c2=O)cc1	5	-0.9	121	i	0.68	nt	nt
44	Cn1c(=O)c(C(=S)NC(=O)C2CC2)c(N)n(Cc2ccccc2)c1=O	0	2.3	96	i	1	13	155
45	Cc1c(C(=O)O)sc2nc(SCC(=O)Nc3ccc(S(=O)(=O)NC(C)(C)C)cc3)[nH]c(=O)c12	-7	nt	91	i	0.6	-8	39
46	O=S(=O)(Nc1cccnc1)c1ccc(Cl)c(C(F)(F)F)c1	0	-1.6	98	i	0.97	31	108
47	Cc1ccc(N=C2NC(=O)/C(=C\c3ccc(C)s3)S2)cc1	-1	nt	107	i	0.89	-7	116
48	Cc1ccc(CNC(=O)CCCNS(=O)(=O)c2cccc3nonc23)cc1	1	-1.5	98	i	0.95	nt	nt
49	CCN(CCn1cccn1)C(=O)CC1C(=O)NCCN1Cc1ccc(OC)c(OC)c1 (stereo unspecified)	-7	nt	116	i	1	-30	50
50	Cc1ccccc1NC(=O)CC1SC(=NC2CCCCC2)NC1=O (stereo unspecified)	4	-1.8	98	i	0.97	34	50
51	O=C(Oc1ccc(NC2=C(Cl)C(=O)c3ccccc3C2=O)cc1)c1ccc([N+](=O)[O-])cc1	9	-1.5	102	i	0.95	62*	112*
52	CC(OC(=O)c1ccccc1Nc1ccc(SC(F)F)cc1)C(N)=O (stereo unspecified)	-1	-0.9	62	i	0.89	-16	32
53	CC(=O)Nc1ccc(S(=O)(=O)NC(CC(=O)NC2CCCCC2C)C(C)C)cc1 (stereo unspecified)	1	-1.5	99	i	1.1	25	83
54	Cn1c(=O)[nH]c(=O)c2c1nc(Br)n2CCSc1nnnn1-c1ccccc1	6	-1.6	97	i	0.82	nt	nt
55	CCN(CC)CCN1C(=O)c2oc3ccccc3c(=O)c2C1c1cccc(Br)c1 (stereo unspecified)	-4	-1.4	104	i	0.96	0	57
56	Cc1cccc(C)c1NC(=O)N1CCCCCCC1	-1	nt	96	i	0.94	nt	nt
57	CC(C)NC(=O)CSCc1cccc(Br)c1	1	-2.8	100	i	0.87	17	70
58	CCC/C=N/NC(=O)c1cccc(Br)c1	-1	nt	100	i	0.89	6	70
59	Cc1ccc(NC(=O)CN2C(=O)C3CC=CCC3C2=O)cc1S(=O)(=O)N1CCOCC1 (stereo unspecified)	-2	nt	99	i	1.1	nt	nt
60	O=C(CN1C(=O)COc2ccccc21)NCCN1CCC(Cc2ccccc2)CC1	3	-0.5	102	i	0.9	-27	73

Continuation:
item	Structure	PKD1 kinase inh	GALR2 ag	RGS16-Gao HTS	HSV augment	HSV augment primary fold	INS promoter inh	INS promoter inh cell count
61	CC1=NNC(=O)C1CCC(=O)N/N=C/c1c(Cl)cccc1Cl (stereo unspecified)	7	nt	98	i	0.89	50	84
62	CC(C)OCCCNC(=O)NC12CC3CC(CC(C3)C1)C2	3	-0.3	95	i	0.84	nt	nt
63	COCCNC(=O)c1ccc(-c2csc(C)n2)cc1	-10	nt	69	i	0.91	53	71
64	COc1nc(N)nc(NC23CC4CC(CC(C4)C2)C3)n1	-11	-0.9	99	i	0.93	-62	94
65	COc1ccc(OC)c(-n2c(-c3cc(-c4ccc(F)cc4)n[nH]3)n[nH]c2=S)c1	6	-2.6	95	i	1	-7	112
66	CCN(CC(=O)NC(C)(C)C)Cc1nc2c(Br)cc(Br)cc2c(=O)[nH]1	nt	nt	107	i	1.1	nt	nt
67	O=C(CCC(=O)c1ccccc1)NCCc1c[nH]c2ccccc12	2	0.0	102	i	0.94	-83	91
68	Cc1cc(C)cc(-n2nnc(C(=O)NCc3ccccc3Cl)c2N)c1	2	0.7	103	i	0.98	nt	nt
69	COc1ccc(CCNC(=O)C2CCCN2S(=O)(=O)c2ccc(F)cc2)cc1OC (stereo unspecified)	7	nt	116	i	1.1	0	85
70	COc1ccc(OC)c(-c2cc(C(=O)NCCN3CCOCC3)no2)c1	-5	-3.2	111	i	1	nt	nt
71	Cc1nn(C(C)(C)C)c(OC(=O)c2cccs2)c1S(=O)(=O)c1ccccc1	-7	0.6	103	i	0.7	67	73
72	CCC(C(=O)OCC(=O)Nc1ccc(C(N)=O)cc1)c1ccccc1 (stereo unspecified)	3	nt	102	i	1	nt	nt
73	COc1ccc(OC)c(/C=C/C(=O)OCC(=O)Nc2ccc3c(c2)OCCO3)c1	4	-1.5	98	i	0.85	28	166
74	COc1ccc(-c2noc(-c3cccs3)n2)cc1OC	nt	nt	95	i	1.1	nt	nt
75	COc1ccc(N2CCC(CNC(=O)Nc3ccccc3)C2)cc1 (stereo unspecified)	-4	-2.2	94	i	1	9	173
76	O=C(CNC(=O)c1ccco1)NCC(=O)OCc1ccccc1Br	-10	-3.3	104	i	0.92	-3	92
77	COc1ccc2c(C)nc(Nc3nc(-c4ccccc4)cc(=O)[nH]3)nc2c1	nt	nt	105	i	0.75	nt	nt
78	COc1ccc(CCN2C(=O)C(Oc3ccccc3C)C2c2ccc3c(c2)OCO3)cc1OC (stereo unspecified)	-1	-1.3	106	i	1.1	-47	103
